# Screening data (PubChem)
# VDR inhibitor: inhibitors of human vitamin D receptor; AID 504847; VDR-SRC2-3 peptide fluorescence polarization, 2 h; Potency, µM, for inactives: max response, negative = inhibition, most hits filed as inhibitors; P11473; actives 0.93% (n = 400,000); active means well fitted inhibition curve with a large enough effect; inconclusive means small, poorly fitted or top-dose-only effect, or another doubt; inactive means no such curve, though single readings can be large or run the other way; further: series mostly up to about 120 µM
# Target sequence (P11473 whole entry, looked up): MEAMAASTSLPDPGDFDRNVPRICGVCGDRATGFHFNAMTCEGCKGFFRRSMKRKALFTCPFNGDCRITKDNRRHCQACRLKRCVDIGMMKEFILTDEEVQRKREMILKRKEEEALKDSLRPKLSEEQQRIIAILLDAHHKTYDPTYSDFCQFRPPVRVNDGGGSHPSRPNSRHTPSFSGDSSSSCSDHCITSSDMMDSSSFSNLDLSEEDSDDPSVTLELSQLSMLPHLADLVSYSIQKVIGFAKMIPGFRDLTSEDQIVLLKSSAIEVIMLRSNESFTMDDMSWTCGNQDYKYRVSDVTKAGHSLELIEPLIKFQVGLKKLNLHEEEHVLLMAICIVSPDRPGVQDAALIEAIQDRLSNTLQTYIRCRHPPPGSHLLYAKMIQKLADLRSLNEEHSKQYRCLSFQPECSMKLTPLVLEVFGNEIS
#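 Fluorescence polarization assay of small-molecule disruption of VDR binding to coregulator peptide SRC2-3. Compounds and controls pin-transferred, then read after 2 h incubation at ambient room temperature.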
# * hit, by the source's call; ? = inconclusive. On the % scale 0 is the no-effect control and ±100 the full control effect; potency means the concentration at half of the fitted maximal effect. A portion of the library. The share of hits here may be higher or lower than overall.
SMILES,VDR inhibitor
CN(C1CCCCC1)S(=O)(=O)c1ccc(C(=O)N2CCN(c3nc4ccccc4s3)CC2)cc1,-9%
O=C(Cc1c(F)c(F)c(F)c(F)c1F)Nc1nc(-c2ccccc2)cs1,0%
Cc1cc2oc(C(=O)N(Cc3ccccc3)C3CCS(=O)(=O)C3)cc(=O)c2cc1Cl (stereo not drawn),-8%
CC(C)Oc1cc(N)c(Cl)cc1Cl,5%
O=C(NCc1nc(-c2ccc(C(F)(F)F)cc2)no1)Nc1ccc(OC(F)(F)F)cc1,12%
FC(F)(F)c1ccc(/C=N/N2CCN(Cc3cccc4ccccc34)CC2)cc1,-14%
O=C(COc1ccc(S(=O)(=O)NC2CCCCC2)cc1Cl)NCc1cccnc1,9%
Cc1ccc(C)c(-c2csc(NC(=O)C3=COCCO3)n2)c1,-5%
CC1CCN(C(=O)CSCC(=O)O)CC1,8%
CC(=O)Nc1ccc(NC(=O)C2CCCN2C(=O)NC2CCCCC2)cc1 (stereo not drawn),-1%
CC(NS(=O)(=O)c1cccc(C(=O)O)c1)C12CC3CC(CC(C3)C1)C2 (stereo not drawn),-2%
CC1CCN(S(=O)(=O)c2cc3c4c(c2)CCN4C(=O)CC3)CC1,-11%
CCCCn1c(SC(C)C(=O)c2ccc(OC)cc2)nc2cc(S(N)(=O)=O)ccc21 (stereo not drawn),-7%
CCN(CC)Cc1c(O)ccc2occ(C(=O)c3ccccc3)c12,4%
COc1ccc(S(=O)(=O)Oc2ccc3cccc(N)c3c2)cc1,8%
N#Cc1c(OCC(=O)c2ccccc2)nc2c(c1-c1ccco1)CCc1ccccc1-2,17%
Cc1ccccc1N1CCN(C2CCCN(C(=O)CCC(F)(F)F)C2)CC1 (stereo not drawn),6%
C=C(C)CNC(=S)N/N=C(\C)c1ccc(OC)cc1,2%
Oc1ccc2ccccc2c1C=NC1CCCCC1,-14%
CCNc1ncc2nc(-c3cc(F)cc(F)c3)c(=O)n(-c3ccc(OC)cc3)c2n1,?
CCOC(=O)c1sc(NC(=O)c2c(CC)noc2C)nc1C,-8%
COc1ccc(NS(=O)(=O)c2ccc(OCC(=O)N3CCOCC3)cc2)cc1Cl,2%
Cc1ccc(C(=O)NCC(=O)Nc2ccc(Cl)cc2)s1,1%
COc1ccc(NC(=S)N2CCN(S(=O)(=O)c3ccc(F)cc3)CC2)cc1OC,-24%
Cc1ccc(S(=O)(=O)N2CCN(Cc3cc(C(C)C)ccc3O)CC2)cc1,-8%
Fc1ccccc1N1CCN(C(c2ccncc2)c2nnnn2C2CCCC2)CC1 (stereo not drawn),-6%
Cc1ccnc(SCC(=O)N2CCC(C(N)=O)CC2)n1,-4%
COc1cc(NC(=O)CN(C)Cc2cccc(F)c2)c(C)cc1[N+](=O)[O-],?
FC(F)(F)c1cccc(CN2CCCCCC2)c1,5%
O=C(CCC(=O)N1CCN(S(=O)(=O)c2cccc(F)c2)CC1)c1cccs1,-10%
COc1ccc(C(=O)Nc2sc3c(c2C(=O)NCc2ccco2)CCCC3)cc1OC,1%
CCc1ccc(NC(=O)Cc2csc(COc3cccc(C)c3)n2)cc1,18%
Cc1nc(NC(=S)NC(=O)c2cccs2)sc1C(=O)N(C)C,-4%
O=C(N/N=C/c1ccccc1O)C1CC(=O)N(c2ccc(Cl)cc2)C1 (stereo not drawn),0%
Cc1ccc(C(=O)CC2(O)C(=O)N(Cc3ccccc3)c3ccccc32)c(C)c1 (stereo not drawn),?
CC(=O)Nc1ccc(NC(=O)COc2ccc([N+](=O)[O-])cc2)cc1,-8%
O=C(c1cc2ccccc2o1)N1CCOCC1,-14%
O=C(CSc1n[nH]c(-c2cccnc2)n1)Nc1cccc(Cl)c1,5%
COc1ccc(OC)c(NC(=O)CC(NC(C)=O)c2ccccc2)c1 (stereo not drawn),13%
Cc1ccc(NC(=S)NCCc2ccccc2)nc1,-11%
COc1ccc(CNC(=O)CCc2nnc3ccc(NCCCN4CCCC4=O)nn23)cc1,-1%
O=S(=O)(NCCc1csc(-c2cccnc2)n1)c1ccc(F)cc1,5%
Cc1noc2ncnc(N3CCCC(C(=O)NC(C)C)C3)c12 (stereo not drawn),5%
COc1ccc(CC(=O)NCC(c2cccs2)S(=O)(=O)c2ccc(F)c(C)c2)cc1 (stereo not drawn),3%
N#CC(=Cc1ccc(O)cc1)C(N)=C(C#N)C#N,-6%
CCOC(=O)CCc1c(C)c2ccc3c(c2oc1=O)CN(CCCO)CO3,-6%
Cc1ccccc1NC(=O)c1sc(Cl)nc1C,0%
Cc1c(NC(=O)CSc2ncn[nH]2)c(=O)n(-c2ccccc2)n1C,2%
COCCNC(=O)CN(C)S(=O)(=O)c1ccc(Br)cc1,24%
CCOC(=O)N1CCC(NC(=O)C2CCCN(S(=O)(=O)c3cccnc3)C2)CC1 (stereo not drawn),-10%
# Carrying on:
SMILES,VDR inhibitor
Nc1nc(Nc2ccccc2)nc2c1ncn2[C@@H]1O[C@@H](CO)[C@H](O)[C@H]1O,1%
O=C(CN1C(=O)COCC1=O)N1CCOCC1,6%
CN(CCOc1ccccc1)CC(O)COCc1ccccc1F (stereo not drawn),-2%
CCOC(=O)c1ccc(S(=O)(=O)Nc2cc(C(C)(C)C)no2)cc1,-17%
COC(=O)c1cc(-c2ccc(OC)cc2)nc2nc(SC)[nH]c(=O)c12,-9%
O=C(Nc1ccccc1)Nc1nnc(Cc2ccc(F)cc2)s1,-16%
CSc1cccc(CN2CCC(CO)(Cc3cccc(C(F)(F)F)c3)CC2)c1,-7%
CN1CCN(C(=O)c2cnn3c(C(F)(F)F)cc(-c4ccc5c(c4)OCO5)nc23)CC1,0%
Cc1ccc(OCC(=O)OCC(=O)Nc2sccc2C(N)=O)cc1C,-17%
COCC1CCN(Cc2cn[nH]c2-c2ccc(OC)c(F)c2)C1 (stereo not drawn),-1%
O=C(NN1CCOCC1)c1cc(-c2ccc(Br)cc2)nc2ccccc12,-24%
CCN(CC)S(=O)(=O)c1ccc2nc(NC(=O)c3cccnc3)sc2c1,-7%
CCC(=O)Nc1ccc(Br)cn1,13%
CCCCn1c(N)c(N(CCOC)C(=O)c2cccc(S(=O)(=O)N(C)c3ccccc3)c2)c(=O)[nH]c1=O,-25%
CCc1ccccc1NC(=O)CCCN1C(=O)c2cccnc2C1=O,1%
O=C(CCNC(=O)c1ccc(Br)cc1)NNC(=O)c1ccccc1O,?
COc1cc(C(=O)OCCN2CCOCC2)ccc1O,-8%
OC1(c2cccc(C(F)(F)F)c2)CCN(Cc2nnnn2Cc2ccccc2)CC1,2%
C=C1C2CC[C@@]3(C)C(c4ccoc4)OC(=O)C[C@@]13OC1CC(OC(C)=O)C(C)(C)C(CC(=O)OC)[C@@]12C (stereo partly drawn),-12%
CC1CCN(C(=O)CCc2nc3cc(S(=O)(=O)N(C)C)ccc3n2C)CC1,-4%
COCC1=C(C(=O)OC)C(c2ccco2)n2ncnc2N1 (stereo not drawn),-6%
CC(OC(=O)c1cccs1)C(=O)NCCc1ccccc1 (stereo not drawn),12%
O=[N+]([O-])c1cc(-c2cnc3ccccc3n2)ccc1Oc1ccc(F)cc1,-11%
Cc1ccc(C(=O)NCCCNc2ccccc2[N+](=O)[O-])cc1,-3%
CCC(C)(C)NC(=O)C(c1ccc(OC)cc1)N(Cc1ccc(OC)cc1)C(=O)CCC(=O)Nc1cc(C)on1 (stereo not drawn),-7%
O=C(OCC(=O)N1CCCC1)c1cc(Cl)ccc1Cl,-8%
Cc1cc(C)c2nc(-c3ccncc3)cc(C(=O)N3CCN(Cc4ccccc4Cl)CC3)c2c1,10%
COc1ccc(CNCc2ccc3ccccc3c2)c(OC)c1,7%
COc1ccc(-n2c(SCC(=O)Nc3ccc(C(=O)O)cc3)nnc2-c2ccccc2)cc1OC,-4%
Cc1ccc(C)c(NC(=O)c2cnc3sc(N4CCOCC4)nn3c2=O)c1,6%

# 2 records drawn at random from those above, as already listed:
SMILES,VDR inhibitor
CCOC(=O)N1CCC(NC(=O)C2CCCN(S(=O)(=O)c3cccnc3)C2)CC1 (stereo not drawn),-10%
COc1ccc(C(=O)Nc2sc3c(c2C(=O)NCc2ccco2)CCCC3)cc1OC,1%

# (continued)
SMILES,VDR inhibitor
O=C(CSc1cn(CCNC(=O)c2cccs2)c2ccccc12)NCC1CCCO1 (stereo not drawn),13%
O=C(COc1ccccc1)NCc1ccco1,3%
Cc1ccccc1C(=O)N(Cc1ccc(N(C)C)cc1)Cc1ccco1,12%
CC1CN(C(=O)CCC(=O)NCCCc2ccccc2)c2ccccc2O1 (stereo not drawn),-15%
Cc1nc(S(=O)(=O)c2cccc(Cl)c2)nc2c1CCC2,-9%
COc1cc(OC)c(C(=S)N2CCCC2)cc1OC,?
O=C(c1cc(=O)[nH]c2ccccc12)N1CCN(c2cccc(C(F)(F)F)c2)CC1,?
CC1=C(c2ccc(Cl)cc2)S(=O)(=O)NC1=NCCCN1CCN(c2cc(C)ccc2C)CC1,14%
CC(C)(O)C#Cc1ccc(CNC[C@H]2O[C@@H](n3cnc4c(N)ncnc43)[C@H](O)[C@@H]2O)s1,-9%
COc1cccc2sc(N(Cc3cccnc3)C(=O)c3ccco3)nc12,17%

# Structural class, the compounds so far containing a nitro group on carbon
SMILES,VDR inhibitor
COc1cc(NC(=O)CN(C)Cc2cccc(F)c2)c(C)cc1[N+](=O)[O-],?
CC(=O)Nc1ccc(NC(=O)COc2ccc([N+](=O)[O-])cc2)cc1,-8%
O=[N+]([O-])c1cc(-c2cnc3ccccc3n2)ccc1Oc1ccc(F)cc1,-11%
Cc1ccc(C(=O)NCCCNc2ccccc2[N+](=O)[O-])cc1,-3%

# Further results:
SMILES,VDR inhibitor
N#Cc1ccc(S(=O)(=O)N2CCN(C(=O)C3CC(=O)N(c4ccc5c(c4)OCCO5)C3)CC2)cc1 (stereo not drawn),-18%
Nc1nnn(CC(=O)N/N=C/C=C/c2ccccc2)n1,19%
Cc1cnc(C(=O)OCC(=O)Nc2cccc(C)c2C)cn1,-4%
COc1ccc(C2CC(=O)c3cnc(NC(=O)c4cc(OC)cc(OC)c4)nc3C2)cc1 (stereo not drawn),-4%
CCC(CO)Oc1cc(NCc2ccc(C(=O)O)cc2)c2ncn(C(C)C)c2c1 (stereo not drawn),-5%
O=C(CN(Cc1ccc(Br)cc1)S(=O)(=O)c1ccccc1)NCc1cccnc1,-12%
NC(=O)c1ccc(NC(=O)CCCN2C(=O)NC3(CCCC3)C2=O)cc1,-14%
Cc1cc(C)cc(NC(=O)C2C3C=CC4(O3)C2C(=O)N(CCCN(C)C)C4C(=O)NC2CCCC(C)C2C)c1 (stereo not drawn),2%
Cc1ccccc1OCCCC(=O)Nc1ccccc1C(F)(F)F,-5%
COc1ccc(-c2noc(CN(C(=O)c3c(-c4ccccc4Cl)noc3C)C(C)C)n2)cc1,-17%

# Look-ups from the results shown.
# Under VDR inhibitor, CCC(CO)Oc1cc(NCc2ccc(C(=O)O)cc2)c2ncn(C(C)C)c2c1 (stereo not drawn) is listed with -5%
# Under VDR inhibitor, COc1ccc(-c2noc(CN(C(=O)c3c(-c4ccccc4Cl)noc3C)C(C)C)n2)cc1 is listed with -17%
# Under VDR inhibitor, COc1ccc(C2CC(=O)c3cnc(NC(=O)c4cc(OC)cc(OC)c4)nc3C2)cc1 (stereo not drawn) is listed with -4%
# Under VDR inhibitor, Cc1ccccc1OCCCC(=O)Nc1ccccc1C(F)(F)F is listed with -5%

# The list goes on.
SMILES,VDR inhibitor
CCOC(=O)c1c(S(=O)(=O)Nc2ccccn2)c(C)n(C)c1C,-10%
COC(=O)CNc1nc(C2CC2)nc2c1nnn2Cc1ccccc1Cl,10%
Cc1ccccc1N1CCN(C2CCCN(C(=O)c3noc4c3CCCC4)C2)CC1 (stereo not drawn),-2%
O=C(CNC(=O)c1ccco1)OCN1C(=O)c2ccccc2C1=O,12%
COc1ccc2c(ccc[n+]2CC(=O)c2ccc(C)cc2)c1,4%
COc1ccccc1C(=O)C1CCCN(Cc2ccc3c(c2)OCCO3)C1 (stereo not drawn),-1%
O=C(Cc1c[nH]c2ccccc12)NCc1ccc(Cl)cc1Cl,-22%
CCCc1cc(=O)n2[nH]c(C)cc2n1,-10%
Cc1ccc(CCNC(=O)C2CCCN(S(=O)(=O)c3c(C)noc3C)C2)cc1 (stereo not drawn),1%
CSc1ccccc1NC(=O)c1ccoc1C,-10%
O=C(c1cc(N2C(=O)C3C4CCC(C4)C3C2=O)ccc1Cl)N1CCN(c2ccc(F)cc2)CC1 (stereo not drawn),-25%
CCN(CC)S(=O)(=O)c1ccc2c(c1)c(=O)c(C(=O)N1CCN(c3cccc(Cl)c3)CC1)cn2C,-4%
CC(NC(=O)c1cc(COc2cccc(C(F)(F)F)c2)on1)c1nccs1 (stereo not drawn),17%
CC(=O)N[C@H]1C(O)O[C@H](CO)[C@@H](O)[C@@H]1O (stereo partly drawn),-1%
COc1cccc2cc(C(=O)OC3CCN(C)CC3)c(=O)oc12,-12%
COC(=O)c1cc(S(=O)(=O)NCC2CCN(Cc3ccc(Cl)cc3)CC2)cn1C,-6%
COCCNC(=O)Cn1cc(C(=O)c2ccco2)c2ccccc21,-13%
CC(C)[C@H]1COCCS(=O)(=O)N1Cc1ccccc1-c1ccc(F)cc1,10%
O=C(CSc1nc(Nc2ccc(F)c(F)c2)c2ccccc2n1)c1ccc(Cl)cc1,-5%
O=C(NC1CCCCC1)c1ccc(S(=O)(=O)c2ccccc2)cc1,-6%
CC(=O)N/N=C(/c1ccccc1)C(O)c1ccccc1 (stereo not drawn),-6%

# An excerpt from above in order of molar mass, smallest number first.
SMILES,VDR inhibitor
CC(NC(=O)c1cc(COc2cccc(C(F)(F)F)c2)on1)c1nccs1 (stereo not drawn),17%
O=C(CSc1nc(Nc2ccc(F)c(F)c2)c2ccccc2n1)c1ccc(Cl)cc1,-5%
CCN(CC)S(=O)(=O)c1ccc2c(c1)c(=O)c(C(=O)N1CCN(c3cccc(Cl)c3)CC1)cn2C,-4%
